# Screening results deposited in PubChem by Broad Institute.
# Vaccinia inh: Vaccinia orthopox stage-specific inhibition. 0.01% of 89,000 active. Vaccinia-infected cells, mCherry/Venus stage reporter fluorescence; hits give low values; some inactives read as strong as hits. activity change (mCherry), % (test concentration not listed);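 active = mCherry past -33% and 40 or more points under the early reporter, replicates agreeing; inconclusive = past -33% without that gap or agreement; tested in A549 cells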;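 note: scaled between vehicle wells and reference inhibitor wells; 23 nL library stock went into each well; one replicate is shown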
# Vaccinia inh Venus: recorded beside Vaccinia inh, whose call it bears; activity change (Venus), %; measured here: Venus reporter, other viral stage;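 negative = less Venus signal; first of two replicates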
# * hit, by the source's call; ? = inconclusive; · = not tested or not shown; & = joins results of further samples. An excerpt, so the mix of outcomes need not match the whole.
SMILES,Vaccinia inh,Vaccinia inh Venus
COCC(=O)N(C)C[C@H]1Oc2ncc(-c3ccc(C#N)cc3)cc2C(=O)N([C@@H](C)CO)C[C@H]1C,14.7,14.3
C[C@@H]1CN([C@H](C)CO)S(=O)(=O)c2ccc(/C=C/c3ccccc3)cc2O[C@H]1CN(C)Cc1cccnc1,?,·
COCC(=O)N1[C@H](C(=O)NCc2ccccc2Cl)[C@@H](CO)[C@@H]2Cn3c(cccc3=O)[C@@H]21,-0.7,2.3
CCNC(=O)C[C@H]1CC[C@@H]2[C@H](COc3ccc(NC(=O)Nc4cccc(Cl)c4)cc3C(=O)N2C)O1,6.7,6.1
C[C@@H]1CN([C@H](C)CO)C(=O)Cc2cc(NC(=O)Nc3ccc4c(c3)OCO4)ccc2O[C@H]1CN(C)S(=O)(=O)c1ccc(F)cc1,15.4,9.4
O=C(C[C@H]1C=C[C@@H](NC(=O)c2ccc(F)cc2)[C@H](CO)O1)NCCc1ccncc1,2.0,4.0
CCC(=O)Nc1ccc2c(c1)C(=O)N(C)C[C@H](OC)[C@H](C)CN(C(=O)C1CCC1)[C@@H](C)CO2,-0.8,3.8
CO[C@@H]1CN(C)C(=O)c2ccc(NC(=O)C3CCCCC3)cc2OC[C@H](C)N(Cc2cccnc2)C[C@H]1C,1.2,4.5
CCCC(=O)Nc1ccc2c(c1)C(=O)N(C)[C@@H]1CC[C@@H](CC(=O)Nc3ccccc3)O[C@H]1CO2,0.6,4.5
CN(C)CC(=O)N[C@H]1CC[C@@H](CCn2cc(C3CCCCC3)nn2)O[C@@H]1CO,-3.0,6.8
CN(C)CC(=O)N1[C@H](C#N)[C@@H](c2ccc(C#CC3CC3)cc2)[C@H]1CO,17.8,0.5
C[C@H]1CCCCO[C@H](CN(C)S(=O)(=O)c2ccc(F)cc2)[C@@H](C)CN([C@@H](C)CO)C(=O)c2cc(NS(=O)(=O)c3cccs3)ccc2O1,-29.9,-15.6

# In another format: results already given
SMILES	Vaccinia inh	Vaccinia inh Venus
COCC(=O)N1[C@H](C(=O)NCc2ccccc2Cl)[C@@H](CO)[C@@H]2Cn3c(cccc3=O)[C@@H]21	-0.7	2.3
CCNC(=O)C[C@H]1CC[C@@H]2[C@H](COc3ccc(NC(=O)Nc4cccc(Cl)c4)cc3C(=O)N2C)O1	6.7	6.1
C[C@@H]1CN([C@H](C)CO)C(=O)Cc2cc(NC(=O)Nc3ccc4c(c3)OCO4)ccc2O[C@H]1CN(C)S(=O)(=O)c1ccc(F)cc1	15.4	9.4
O=C(C[C@H]1C=C[C@@H](NC(=O)c2ccc(F)cc2)[C@H](CO)O1)NCCc1ccncc1	2.0	4.0
CCC(=O)Nc1ccc2c(c1)C(=O)N(C)C[C@H](OC)[C@H](C)CN(C(=O)C1CCC1)[C@@H](C)CO2	-0.8	3.8
CO[C@@H]1CN(C)C(=O)c2ccc(NC(=O)C3CCCCC3)cc2OC[C@H](C)N(Cc2cccnc2)C[C@H]1C	1.2	4.5
CCCC(=O)Nc1ccc2c(c1)C(=O)N(C)[C@@H]1CC[C@@H](CC(=O)Nc3ccccc3)O[C@H]1CO2	0.6	4.5
CN(C)CC(=O)N[C@H]1CC[C@@H](CCn2cc(C3CCCCC3)nn2)O[C@@H]1CO	-3.0	6.8
CN(C)CC(=O)N1[C@H](C#N)[C@@H](c2ccc(C#CC3CC3)cc2)[C@H]1CO	17.8	0.5
C[C@H]1CCCCO[C@H](CN(C)S(=O)(=O)c2ccc(F)cc2)[C@@H](C)CN([C@@H](C)CO)C(=O)c2cc(NS(=O)(=O)c3cccs3)ccc2O1	-29.9	-15.6

# (cont.)
SMILES,Vaccinia inh,Vaccinia inh Venus
O=C(C1CCCC1)N1CCCCN2[C@H](CO)[C@H](c3ccc(-c4cccc(F)c4)cc3)[C@H]2C1,?,·
Cc1noc(C)c1NC(=O)N(C)C[C@H]1Oc2ccc(NC(=O)Nc3cccc4ccccc34)cc2CC(=O)N([C@@H](C)CO)C[C@@H]1C,-6.5,6.8
COc1ccc(CN(C)C[C@@H]2OCCCC[C@H](C)Oc3ccc(NC(=O)Nc4ccc(F)cc4)cc3C(=O)N([C@@H](C)CO)C[C@@H]2C)cc1,?,·
C[C@H]1CN([C@@H](C)CO)C(=O)c2cccc(NC(=O)Nc3cccc4ccccc34)c2O[C@H]1CN(C)C(=O)NC1CCCCC1,?,·
CC1C=NC(S(=O)(=O)N2CC[C@@H]3[C@H](CO)N(C)c4ccc(C5=CCCCC5)cc4[C@@H]32)=N1 (stereo not given in full),0.7,2.2
COc1ccc(-c2cnc3c(c2)C(=O)N([C@H](C)CO)C[C@@H](C)[C@H](CN(C)C(=O)C2CCOCC2)O3)cc1,27.7,16.4
O=C(NCCc1ccccc1)[C@@H]1N[C@@H]2c3ccc(-c4ccccc4)c(=O)n3C[C@@H]2[C@H]1CO,9.3,10.2
O=C(C[C@@H]1C[C@@H]2c3cc(NC(=O)Cc4ccncc4)ccc3O[C@@H]2[C@@H](CO)O1)NCc1cccnc1,4.6,6.8
C[C@H](CO)N1C[C@H](C)[C@@H](CN(C)C)Oc2cc(C#CC3(O)CCCC3)ccc2S1(=O)=O,9.8,6.3
CCCNC(=O)N(C)C[C@H]1Oc2ncc(C3=CCCC3)cc2C(=O)N([C@H](C)CO)C[C@@H]1C,6.8,9.3
C[C@@H]1CCCCO[C@@H](CN(C)C(=O)Nc2ccc3c(c2)OCO3)[C@@H](C)CN([C@H](C)CO)C(=O)c2cc(NC(=O)Nc3ccc(F)cc3)ccc2O1,9.6,2.6
CO[C@H]1CN(C)C(=O)c2ccc(NC(=O)C3CCOCC3)cc2OC[C@@H](C)N(Cc2nccs2)C[C@H]1C,14.0,3.9
COc1ccc(S(=O)(=O)N(C)C[C@H]2OCCCC[C@@H](C)Oc3ccc(NS(=O)(=O)c4ccc(Cl)cc4)cc3C(=O)N([C@@H](C)CO)C[C@H]2C)cc1,?,·
C[C@H](CO)N1C[C@H](C)[C@H](CN(C)Cc2ccc(Cl)c(Cl)c2)Oc2ccc(NS(=O)(=O)c3ccc(Cl)cc3)cc2CC1=O,?,·
CN(C)C(=O)[C@H]1[C@H](CO)[C@H]2Cn3c(ccc(-c4ccncc4)c3=O)[C@@H]1N2CC1CCCC1,13.7,13.5
Cc1ccc(S(=O)(=O)N(C)C[C@@H]2OCCCC[C@@H](C)Oc3ccc(NS(C)(=O)=O)cc3C(=O)N([C@H](C)CO)C[C@@H]2C)cc1,11.8,0.9
CC(C)NC(=O)Nc1ccc2c(c1)C(=O)N([C@H](C)CO)C[C@@H](C)[C@H](CN(C)C(=O)Nc1ccccc1)OCCCC[C@@H](C)O2,2.3,-3.8
COc1ccccc1CNC(=O)C[C@@H]1C[C@H]2c3cc(NC(=O)Nc4ccccc4F)ccc3O[C@H]2[C@@H](CO)O1,11.3,13.0
Cc1ccc(S(=O)(=O)N(C)C[C@H]2OCCCC[C@H](C)Oc3ccc(NC(=O)Nc4cccc5ccccc45)cc3C(=O)N([C@H](C)CO)C[C@H]2C)cc1,11.8,21.5
Cc1cccc(-c2ccc([C@@H]3[C@@H](CO)N4CCCCN(S(=O)(=O)c5ccccc5C)C[C@@H]34)cc2)c1,19.7,-6.1
COc1ccc(NC(=O)Nc2cccc3c2O[C@H](CN(C)C(=O)Nc2ccc(F)cc2)[C@H](C)CN([C@H](C)CO)C3=O)cc1,15.3,10.6
C[C@@H]1CN([C@H](C)CO)C(=O)c2ccccc2-c2ccccc2CO[C@H]1CN(C)C(=O)[C@H](C)c1ccccc1,10.1,8.4
COc1ccc(NC(=O)N[C@H]2CC[C@@H](CCNS(=O)(=O)c3ccccc3F)O[C@H]2CO)cc1,2.7,6.0
C[C@H](CO)N1C[C@H](C)[C@H](CN(C)S(=O)(=O)c2ccc(Cl)cc2)OCCCC[C@H](C)Oc2ccc(NS(=O)(=O)c3cccs3)cc2C1=O,-27.5,-16.6
C[C@@H](NC(=O)[C@@H]1[C@@H](CO)[C@@H]2Cn3c(cccc3=O)[C@H]1N2C(=O)C1CCCC1)c1ccccc1,16.1,9.1
C[C@H](CO)N1C[C@H](C)[C@@H](CN(C)C(=O)c2cccc(F)c2)Oc2ncc(-c3ccncc3)cc2C1=O,19.8,2.6
C[C@H](CO)N1C[C@H](C)[C@H](CN(C)Cc2ccc(-c3ccccc3)cc2)Oc2ccc(NC(=O)Nc3ccc(F)cc3)cc2C1=O,?,·
C[C@@H]1CN([C@H](C)CO)C(=O)c2cc(NC(=O)Nc3ccc4c(c3)OCO4)ccc2O[C@@H](C)CCCCO[C@@H]1CN(C)C(=O)Cc1ccccc1,16.4,1.8
CO[C@@H](CN(C)Cc1cc(F)ccc1F)[C@H](C)CN([C@@H](C)CO)S(=O)(=O)c1ccc(F)cc1,-9.0,-3.4
O=S(=O)(c1ccccc1F)N1[C@@H]2CNC[C@H]1C2c1ccc(-c2cccnc2)cc1 (stereo not given in full),-26.0&22.3,-15.3&13.3
COc1ccc(-c2cnc3c(c2)C(=O)N([C@H](C)CO)C[C@H](C)[C@H](CN(C)C(=O)Cc2ccccc2)O3)cc1,-9.0,-12.8
CN(C)C(=O)C[C@@H]1CC[C@H]2[C@@H](COc3ccc(NC(=O)C4CCCC4)cc3C(=O)N2C)O1,16.0,12.1
CC(C)NC(=O)N(C)C[C@H]1OCCCC[C@@H](C)Oc2ccc(NS(=O)(=O)c3ccccc3)cc2C(=O)N([C@H](C)CO)C[C@H]1C,9.5,9.6
CO[C@@H]1CN(C)C(=O)c2cc(NS(=O)(=O)c3cn(C)cn3)ccc2OC[C@H](C)N(Cc2cccc(F)c2)C[C@@H]1C,12.7,10.3
COc1ccc(CN(C)C[C@H]2OCCCC[C@@H](C)Oc3ccc(NC(=O)Nc4ccc5c(c4)OCO5)cc3C(=O)N([C@@H](C)CO)C[C@H]2C)cc1,?,·
N#C[C@@H]1[C@H](c2ccc(C#CC3CCCC3)cc2)[C@@H](CO)N1C(=O)Nc1ccc(F)cc1,?,·
CO[C@@H](CN(C)S(=O)(=O)c1ccc(C)cc1)[C@@H](C)CN(Cc1ccccc1Cl)[C@H](C)CO,-32.3,-28.5
C[C@@H]1CN([C@@H](C)CO)C(=O)Cc2cc(NC(=O)C3CC3)ccc2O[C@@H]1CN(C)Cc1ccc(C(F)(F)F)cc1,?,·
Cc1noc(C)c1S(=O)(=O)N(C)C[C@H]1OCCCC[C@@H](C)Oc2ccc(NC(=O)c3ccccc3)cc2C(=O)N([C@@H](C)CO)C[C@@H]1C,-24.6,-14.8
CC12N=C3SCc4ccccc4CN3[C@H](c3ccccc3O1)[C@H]2CO[Si](C)(C)C(C)(C)C,14.0,9.3
C[C@@H]1CN([C@@H](C)CO)C(=O)c2cccc(NC(=O)NC3CCCCC3)c2O[C@H]1CN(C)C(=O)Nc1ccc(F)cc1,1.7,4.6
CO[C@H](CN(C)C(=O)c1cnccn1)[C@H](C)CN([C@@H](C)CO)S(=O)(=O)c1ccc(C)cc1,5.3,5.5
COc1ccc(-c2cnc3c(c2)C(=O)N([C@H](C)CO)C[C@@H](C)[C@H](CN(C)C(=O)C2CCCCC2)O3)cc1,5.4,-0.6
O=C1CN(Cc2ccc(F)cc2)C[C@H]2[C@@H](c3ccc(-c4cccnc4)cc3)[C@H](CO)N12,-4.6,-1.0
C[C@@H]1CN([C@H](C)CO)S(=O)(=O)c2ccc(C#CCN(C)C)cc2O[C@H]1CN(C)C(=O)c1ccccc1F,22.2,6.4
CN(C)CC(=O)Nc1ccc2c(c1)[C@H]1C[C@H](CC(=O)NC3CCCC3)O[C@@H](CO)[C@H]1O2,14.2,5.5
COC(=O)N(C)C[C@@H]1OCc2ccccc2-c2c(n(C)c3ccccc23)C(=O)N([C@H](C)CO)C[C@@H]1C,7.7,5.9
CO[C@@H]1CC[C@@H]2CCN(C)C(=O)[C@H](C)[C@H](OC)CN(C)C(=O)c3cccc(C#N)c3OC[C@H]1O2,1.9,-4.0
C[C@@H]1CN([C@@H](C)CO)C(=O)Cc2cc(NC(=O)C3CCCCC3)ccc2O[C@H]1CN(C)Cc1ccc(C(F)(F)F)cc1,?,·
C[C@@H]1CN([C@@H](C)CO)C(=O)Cc2cc(NC(=O)NC3CCCCC3)ccc2O[C@@H]1CN(C)C(=O)NC1CCCCC1,2.0,1.0
C[C@H](CO)N1C[C@H](C)[C@H](CN(C)S(=O)(=O)c2cccs2)Oc2ccc(NC(=O)Nc3ccc4c(c3)OCO4)cc2CC1=O,-26.4,-17.0
Cc1ccc(S(=O)(=O)N2C[C@H](O)COC[C@H]3O[C@@H](CC(=O)NCCN4CCCCC4)CC[C@@H]32)cc1,6.9,4.3
COCC(=O)Nc1ccc2c(c1)OC[C@H](C)N(C(C)=O)C[C@H](C)[C@@H](OC)CN(C)C2=O,22.3,14.0
CCC(=O)N1[C@@H](CO)[C@@H](c2ccccc2)C12CN(C(=O)Nc1ccccc1F)C2,-4.1,2.8
COc1ccc(S(=O)(=O)N(C)C[C@H]2OCCCC[C@@H](C)Oc3ccc(NC(=O)NC(C)C)cc3C(=O)N([C@H](C)CO)C[C@@H]2C)cc1,13.5,15.6
O=C(N[C@@H]1CC[C@@H](CCn2cc(C3CCCCC3)nn2)O[C@H]1CO)c1cccnc1,8.0,9.3
C[C@@H]1CN([C@H](C)CO)C(=O)c2cc(NC(=O)Nc3ccc(C(F)(F)F)cc3)ccc2O[C@@H]1CN(C)Cc1ccc(Oc2ccccc2)cc1,-19.5,-15.0
C[C@@H]1CCCCO[C@H](CN(C)Cc2ccc(C(F)(F)F)cc2)[C@H](C)CN([C@H](C)CO)C(=O)c2cc(NS(=O)(=O)c3ccc(F)cc3)ccc2O1,?,·
Cc1ccc(S(=O)(=O)N(C)C[C@@H]2OCCCC[C@@H](C)Oc3ccc(NC(=O)Nc4cccc5ccccc45)cc3C(=O)N([C@H](C)CO)C[C@@H]2C)cc1,19.2,12.3
C[C@H]1CN([C@@H](C)CO)S(=O)(=O)c2ccc(-c3cccnc3)cc2O[C@H]1CN(C)C,5.7,5.0
O=C(C[C@@H]1CC[C@H]2NC[C@H](O)COC[C@@H]2O1)N1CCc2ccccc2C1,0.6,10.0
